# Rango release inh: inhibition of RanGTP-driven Rango-importin beta dissociation | hit rate 0.071% among 340,000 | AID 540253 | Biochemical FRET Rango-importin beta, RanGTP-induced dissociation | Potency, µM (highest dose often 46.1 µM), without a hit: at the top dose activity change, negative = inhibition | O95149+P62826; active means falling FRET ratio curve, often poorly fitted, with flat reads before Ran was added; inconclusive means other falling curves, or compound fluorescence or quenching; inactive means flat or rising ratio curve;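 also: potency is read from the fitted curve at half-maximal effect; % of control where 0% means no effect; nearly all actives have a fitted effect of over 45% in size; -100% = wells without RanGTP and RCC1; the record marks most hits as doubtful in a second field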
#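 Compounds sat 5 min at room temperature with 0.1 uM Rango biosensor plus 0.25 uM importin beta, then FRET pre-read. RanGTP-RCC1 (0.6 uM Ran, 2mM GTP, 0.2 uM RCC1) added for 45 min, and the CFP/YFP post-read measured blocked complex dissociation.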
# Rango-impB inh: Rango-importin beta binding inhibition. Rango CFP/YFP FRET sensor + importin beta, 45 min. Potency, µM (titrated, usually from 92.2 µM), without a hit: top-dose inhibition of complex formation. hit rate 0.031% among 340,000. AID 540263; active = rising FRET ratio curve, often small or poorly fitted; inconclusive = mostly compound fluorescence or quenching in the first reads; inactive = flat curves in all reads;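 also: potency is read from the fitted curve at half-maximal effect; 0% = DMSO wells and 100% = buffer wells lacking importin beta; nearly all actives have a fitted effect of over 15% in size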
# Target sequence (Q14974 whole entry, looked up): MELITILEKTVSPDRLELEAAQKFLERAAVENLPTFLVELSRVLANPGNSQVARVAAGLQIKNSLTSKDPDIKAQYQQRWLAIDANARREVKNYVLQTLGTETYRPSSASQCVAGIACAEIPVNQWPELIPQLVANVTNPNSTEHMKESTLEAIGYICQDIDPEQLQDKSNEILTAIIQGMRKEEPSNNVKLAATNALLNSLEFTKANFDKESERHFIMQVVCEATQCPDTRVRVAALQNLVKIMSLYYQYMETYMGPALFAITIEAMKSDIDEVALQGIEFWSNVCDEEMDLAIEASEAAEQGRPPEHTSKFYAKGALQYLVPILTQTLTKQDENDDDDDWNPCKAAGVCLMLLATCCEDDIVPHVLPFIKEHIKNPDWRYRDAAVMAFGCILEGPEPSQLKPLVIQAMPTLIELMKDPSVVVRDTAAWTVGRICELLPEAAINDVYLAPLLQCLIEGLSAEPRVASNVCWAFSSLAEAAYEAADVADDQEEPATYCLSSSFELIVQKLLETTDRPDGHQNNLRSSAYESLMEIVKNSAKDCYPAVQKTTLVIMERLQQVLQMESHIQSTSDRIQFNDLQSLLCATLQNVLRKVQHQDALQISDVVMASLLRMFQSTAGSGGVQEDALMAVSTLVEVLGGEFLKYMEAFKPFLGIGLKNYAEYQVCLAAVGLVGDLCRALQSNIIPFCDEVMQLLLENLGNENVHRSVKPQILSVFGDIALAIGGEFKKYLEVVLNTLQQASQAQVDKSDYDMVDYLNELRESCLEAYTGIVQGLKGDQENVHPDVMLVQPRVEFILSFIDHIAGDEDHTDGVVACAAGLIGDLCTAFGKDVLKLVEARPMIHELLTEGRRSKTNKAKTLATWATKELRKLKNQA
#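 FRET biosensor Rango (snurportin 1 IBB between N-terminal EYFP and C-terminal Cerulean), 50 nM in PBS/1 mM DTT/0.02% Tween-20/0.1% BSA, preincubated 5 min RT with compound; 0.125 microM importin beta added, 45 min RT, CFP/YFP FRET ratio read.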
# miR-21 reporter: miR-21 reporter, rising signal. HeLa miR-21 FLuc reporter, luciferase, 48 h. 340,000 tested, under 10 active. Potency, µM (highest dose often 38.3 µM), for the others: at the highest dose reporter change, positive = more light; active = well fitted rising curve with a large enough effect; inconclusive = small, poorly fitted or top-dose-only effect; inactive = no such curve, though single readings can be large or run the other way;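 also: % of control where 0% means no effect; miR-21 action dims this reporter so a rising signal means less miR-21 action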
#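 Using DMEM plus 10% FBS, HeLa miR-21-FLuc cells are incubated with test compounds (final up to about 40uM) for 48 hours; firefly luciferase signal is then imaged following reagent-mediated lysis.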
# GLA inh pH 4.5: alpha-galactosidase A (human) inhibition, pH 4.5 | P06280 | purified enzyme, 4-MU-alpha-Gal fluorescence, pH 4.5 | activity change, negative = inhibition, % at 105 µM | 230,000 tested, under 10 active | AID 1467; inconclusive = small, poorly fitted or top-dose-only inhibition, or a rising curve; inactive = flat fitted curve, though single readings scatter; no compound was filed as active;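 also: 0% = full activity with enzyme and -100% = basal without enzyme; dose as in the result columns while the protocol names 77 µM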
# Starred values were filed as active, the others as inactive; u = inconclusive; x = no result given; & = joins results of further samples. Not all compounds are listed; rates above refer to the full screens.
SMILES,Rango release inh,Rango-impB inh,miR-21 reporter,GLA inh pH 4.5
CCCn1cc(CN2CCCC(C(=O)c3ccc4c(c3)OCO4)C2)c(C)n1 (stereo not drawn),4.1%,0.4%,-1.4%,x
O=C(CS(=O)(=O)c1ccccc1)NCc1ccccc1,-7.8%,-0.6%,-3.6%,x
CC(=O)Nc1cc2nc(C)n(Cc3ccc([N+](=O)[O-])cc3)c2nc1C,11.6%,5.9%,-2.0%,x
COC(=O)CCC(=O)OC1(C)C(=O)C=C2C=C(C3CC3)N(CCCCO)C=C2C1=O (stereo not drawn),-13.7%,-0.5%,4.9%,2.9&-11.4
COc1ccc(C(=O)CN2CCN(c3ncccn3)CC2)cc1,-0.7%,-2.3%,-3.2%,x
C=CC[C@@H](CC(=O)N(CCO)Cc1ccccc1)C(=O)N[C@H](COC(=O)[C@@H](CC=C)Cc1ccc(F)cc1)Cc1ccccc1,21.4%,-2.6%,x,x
Cc1ccc(S(=O)(=O)N2CCN(C(=O)CC(C)n3nc(C)c(Cl)c3C)CC2)cc1 (stereo not drawn),-1.4%,4.1%,3.6%,x
CCn1c(SCC(=O)NC2CCCC2)nnc1C(C)NC(=O)c1ccccc1Br (stereo not drawn),8.6%,0.6%,0.0%,x
COc1ccc(OC)c(-c2csc(NC(=O)C3=COCCO3)n2)c1,-18.6%,-3.1%,x,x
Cc1cccc(C(=O)NCC(=O)OCC(=O)c2ccc(Cl)s2)c1,4.5%,-2.7%,-1.4%,x
Cc1ccc(NC(=O)C(=O)NCC2CCCN2S(=O)(=O)c2cccs2)cc1C (stereo not drawn),7.9%,-2.6%,x,x
CC1CCc2cc(F)ccc2N1C(=O)c1ccncc1 (stereo not drawn),13.3%,3.6%,-0.5%,-1.1
COc1cc(NC(=O)COC(=O)CSc2ccccc2F)c(C)cc1[N+](=O)[O-],47.7%,3.2%,3.1%,-10.7
CCCc1nnc(NC(=O)CC(C)c2ccccc2)s1 (stereo not drawn),-1.3%,-0.7%,-3.9%,x
Cc1ccc(N=N/C(=C\O)C(=O)c2ccc(Cl)cc2)cc1,9.7%,4.9%,-0.4%,-3.3
CC(C)c1cc(C(=O)OCC(=O)NC(=O)NCc2ccco2)c(O)c(C(C)C)c1,-16.2%,-2.7%,17.5%,u
Cc1ccc(S(=O)(=O)NCC(=O)OCC(=O)NC2CCCCC2)cc1,0.3%,0.8%,x,x
O=C(c1ccc([N+](=O)[O-])o1)N1CCN(c2nc3ccc(F)cc3s2)CC1,-3.4%,-1.1%,x,x
COc1ccc(CNC(=O)CCC(=O)c2ccc(C)cc2)cc1OC,-7.7%,-2.7%,-0.4%,x
COc1ccccc1C1/C(=C(/O)c2ccccc2)C(=O)C(=O)N1CC(C)C (stereo not drawn),16.3%,u,-5.5%,-6.5
CN(C)CCCN1C(=O)C(O)=C(C(=O)c2cccs2)C1c1cccc([N+](=O)[O-])c1 (stereo not drawn),x,x,-0.9%,-3.5
CCC(=O)N1C(C(=O)N2CCCC2)CSC1c1ccc(OC)cc1 (stereo not drawn),15.0%,1.4%,-11.2%,-1.9
CCOc1ccc(NC(=O)CN(C)C(=O)c2cn(-c3ccc(F)cc3)nc2-c2cccc(OC)c2)cc1OCC,2.4%,-1.1%,x,x
COc1cccc(/C=C2\SC(=S)NC2=O)c1OS(=O)(=O)c1ccc(NC(C)=O)cc1,-3.2%,-1.3%,-6.7%,-28.1
CCn1c(CNC(=O)c2cccs2)nnc1SCC(=O)NCCc1ccccc1,7.7%,-3.4%,-0.9%,2.8

# 3 of the entries above in order of the Rango release inh value, low to high.
smiles	Rango release inh
O=C(c1ccc([N+](=O)[O-])o1)N1CCN(c2nc3ccc(F)cc3s2)CC1	-3.4%
Cc1ccc(NC(=O)C(=O)NCC2CCCN2S(=O)(=O)c2cccs2)cc1C (stereo not drawn)	7.9%
C=CC[C@@H](CC(=O)N(CCO)Cc1ccccc1)C(=O)N[C@H](COC(=O)[C@@H](CC=C)Cc1ccc(F)cc1)Cc1ccccc1	21.4%

# Going on with the list.
SMILES,Rango release inh,Rango-impB inh,miR-21 reporter,GLA inh pH 4.5
CCOC(=O)c1sc(-c2ccc(Br)cc2)cc1N,0.0%,-1.2%,-53.1%,-5.0
Cn1c(=O)c2c(nc(NCCNC(=O)c3ccco3)n2Cc2ccc(F)cc2)n(C)c1=O,4.4%,2.6%,0.4%,x
O=C(O)CN1C(=O)SC(Nc2ccc(C(=O)O)cc2)C1=O (stereo not drawn),1.5%,-5.0%,1.3%,1.7
O=C1c2ccccc2C(=O)c2cc(S(=O)(=O)Nc3ccccc3)ccc21,-2.2%,4.9%,6.6%,-0.1
Cc1ccc(NS(=O)(=O)c2ccc(NC(=O)c3cccs3)cc2)c(C)c1,10.4%,-2.6%,-0.3%,-2.7
COc1ccc(Cl)cc1NC(=S)N1CCN(S(C)(=O)=O)CC1,3.7%,0.7%,-1.3%,0.6
Cc1ccc(N(C(=O)c2csnn2)C(C(=O)NC(C)(C)C)c2ccccn2)cc1 (stereo not drawn),1.5%,u,0.8%,-0.2
COc1ccccc1/C=N/n1c(C)nnc1-n1nc(C)cc1C,-12.9%,3.8%,-1.5%,6.9
COc1ccccc1C(=O)C1CCCN(C(=O)CSc2ccccn2)C1 (stereo not drawn),-1.2%,0.0%,-9.1%,7.5
O=C(O)c1ccccc1OCCOCCOc1ccccc1C(=O)O,19.0%,0.0%,0.4%,-4.4
Cc1ccc(C2=NN=C(NC(=O)CSc3nncn3C)SC2)cc1,-0.4%,-1.4%,-0.1%,10.6
CC1CC(C)CN(C(=O)/C=C/c2ccc([N+](=O)[O-])s2)C1 (stereo not drawn),-26.7%,-3.3%,u,1.9
O=C(COC(=O)c1ccc(NS(=O)(=O)c2cccs2)cc1O)Nc1ccc(F)cc1,-3.6%,-3.9%,-6.4%,1.4
COc1cccc(OCc2nc(-c3cccc([N+](=O)[O-])c3)no2)c1,-0.5%,-2.9%,-14.0%,-4.0
CCC(=O)N1CCN(C(C)=O)C1c1ccccc1 (stereo not drawn),17.0%,-0.7%,-1.7%,-4.4
COc1ccc(C2(c3ccc(OC)cc3)NC(=O)N(CC(=O)Nc3ccccc3)C2=O)cc1,4.8%,1.8%,4.2%,x
O=C(CSc1oc(-c2ccco2)nc1S(=O)(=O)c1ccc(Cl)cc1)NCC1CCCO1 (stereo not drawn),-5.5%,u,-1.5%,3.0
CCc1nnc(NC(=O)C2CCCCN2S(=O)(=O)c2ccccc2)s1 (stereo not drawn),0.8%,0.0%,3.2%,3.5
COc1cccc(NC(=O)CSc2nnc3ccc(-c4ccccn4)nn23)c1,-12.0%,1.5%,x,x
COCCN(CC(=O)Nc1cccc(C)c1C)C(=O)c1cc2c(s1)CCC2,1.0%,4.0%,x,x
CCOC(=O)c1c(C)n(C)c2ccc(OCC(O)CN3CCN(C)CC3)cc12 (stereo not drawn),12.3%,-3.7%,-10.5%,-0.1
COCCOC(=O)C1=C(N)OC2=C(C(=O)CC(C)(C)C2)C1c1cccnc1 (stereo not drawn),-6.4%,0.1%,-5.3%,-3.1
O=c1c2ccccc2nc2c3ccccc3c(NCc3ccco3)nn12,3.1%,0.4%,-6.6%,3.7
CCC(C)N(C(=O)c1csnn1)C(C(=O)NCc1ccc(F)cc1)c1ccco1 (stereo not drawn),-13.2%,-1.3%,1.5%,3.7
COc1cccc(C(C(=O)NC2CCCC2)N(C(=O)c2ccco2)c2ccccc2F)c1OC (stereo not drawn),5.9%,-0.7%,3.4%,x
SMILES,Rango release inh,Rango-impB inh,miR-21 reporter,GLA inh pH 4.5
CCOc1ncccc1C(=O)NCc1ccc(OC)cc1,1.3%,0.0%,14.4%,3.7
CCOC(=O)C1=C(N)N(c2cc(S(=O)(=O)N3CCOCC3)ccc2Cl)C(=O)C1,2.8%,0.2%,3.5%,5.2
CC1CCCC(NC(=O)CN(C)CC(=O)Nc2ccc(F)cc2)C1C (stereo not drawn),13.4%,3.8%,x,x
COc1ccccc1NC(=S)NCc1ccco1,0.6%,4.4%,4.5%,-2.1
CCOC(=O)c1ccccc1NC(=O)c1n[nH]c(=O)c2ccccc12,-12.8%,3.8%,-3.3%,2.1
O=C1CCCN1CCCNS(=O)(=O)c1ccc(Br)s1,9.1%,-2.3%,1.6%,x
CN(C)C(=O)c1cccn(Cc2cccc(C(F)(F)F)c2)c1=O,19.0%,1.7%,-0.3%,17.1
Cc1[nH]c2ccccc2c1-c1nc(N)sc1C,-13.4%,-0.2%,0.0%,x
CC(C)Oc1ccc(C(=O)NC2CCSc3ccccc32)cc1 (stereo not drawn),2.9%,2.5%,-4.2%,x
Cn1ncc([N+](=O)[O-])c1C(=O)Nc1ccc2c(c1)OCCO2,-4.8%,-0.3%,-12.4%,3.8
CCOC(=O)C1=C(CC)OC(N)=C(C#N)C1c1cccs1 (stereo not drawn),-5.8%,0.5%,1.2%,0.3
O=C(C[n+]1ccc(/C=N/O)cc1)NC1CCCCC1,-5.7%,0.1%,0.4%,-8.8
[N-]=[N+]=CC(=O)CNC(=O)[C@@H](Cc1ccccc1)N1C(=O)c2ccccc2C1=O,-12.8%,-0.1%,0.1%,-1.2
O=S(=O)(NCc1ccccc1)c1ccccc1Br,8.3%,-2.3%,-4.1%,9.5
CC1=NC(C)Cc2ccccc21 (stereo not drawn),-17.7%,-0.1%,-1.5%,-2.6
C=C(C)C(=O)Nc1cccc(C2=NOC3(C2)C[C@@H](C(N)=O)N(C(=O)/C=C/CC)C3)c1 (stereo partly drawn),12.8%,-4.0%,1.2%,-7.7
CCc1nc2ccccc2c(C(=O)OCC(=O)N(CCOC)c2c(N)n(Cc3ccccc3)c(=O)[nH]c2=O)c1C,-7.4%,-0.2%,x,x
Cc1ccc(N(C(=O)Cn2nnc(-c3ccc(C)o3)n2)C(C(=O)NC2CCCC2)c2ccco2)cc1 (stereo not drawn),-8.0%,-3.2%,-0.1%,4.7
COc1ccc(C)cc1N(C(=O)c1snc(C(N)=O)c1N)C(C(=O)NC1CCCC1)c1ccc(F)cc1 (stereo not drawn),0.8%,-1.7%,7.7%,x
C/C=C/c1cc(CN2CCN(c3ccc(OC)cc3)CC2)c(O)c(OC)c1,2.9%,0.7%,0.7%,-5.4
Nc1nnc(SCC(=O)Nc2cc(F)ccc2F)s1,2.6%,-3.6%,x,x
COC(=O)c1c(C(=O)OC)c(-c2ccc(Br)cc2)n2c1CS(=O)C2 (stereo not drawn),8.0%,3.8%,-3.4%,x
Cc1n[nH]c(=O)c2c(NC(=O)CSc3nc4ccccc4c(=O)n3-c3ccc(OC(F)F)cc3)oc(C)c12,-18.7%,1.7%,x,x
Cc1cccc(C(=O)NC(C)c2ccc(-n3ccnc3)cc2)c1C (stereo not drawn),3.9%,1.5%,x,x
CC(=O)NC(C)c1ccc(C(=O)CSc2nnc(C3CC3)n2C2CC2)cc1 (stereo not drawn),11.7%,0.0%,x,x
SMILES,Rango release inh,Rango-impB inh,miR-21 reporter,GLA inh pH 4.5
O=C(NCCC1=CCCCC1)C1CCC(=O)N(Cc2cccc(C(F)(F)F)c2)C1 (stereo not drawn),-1.1%,-2.7%,4.2%,x
COC(=O)[C@H]1C[C@@H]1[C@H](NC(=O)c1cccnc1)c1ccccc1,12.6%,0.5%,x,2.7
CN(C)S(=O)(=O)c1ccc(C(=O)OCC(=O)NCc2ccco2)cc1,-1.7%,-1.7%,0.4%,-2.0
O=C(NO)C1CC2C=CC1C2 (stereo not drawn),-5.8%,-1.0%,-8.1%,0.2
Cc1cc(C)c(S(=O)(=O)N2CCN(S(=O)(=O)N3CCCCCC3)CC2)c(C)c1,1.4%,-1.8%,0.8%,x
COC(=O)[C@]1(Cc2ccccc2)N[C@H](CN(C)C(=O)c2ccccc2)[C@@H]2C(=O)N(C)C(=O)[C@@H]21,3.4%,4.5%,x,x
Cc1ccccc1NC(=O)C1CC(=O)N(Cc2ccccc2)C1 (stereo not drawn),-3.1%,1.0%,-2.0%,2.3
CCOC(=O)c1cc2c(=O)n3ccccc3nc2n(Cc2ccco2)c1=NC(=O)c1ccc(OC)cc1,u,u,4.6%&14.7%,2.0
Clc1ccc(-c2ccccc2)nn1,-17.3%,-0.2%,-18.1%,7.8
CC(=O)c1ccc(NS(=O)(=O)c2ccc(CC(C)C)cc2)cc1,24.5%,-3.0%,6.2%,5.8

# Screening data deposited in PubChem BioAssay by National Center for Advancing Translational Sciences (NCATS).
